Assay outcomes: PubChem BioAssay, National Center for Advancing Translational Sciences (NCATS)
Menin-MLL FL inh – displaces fluorescein MLL peptide from human menin; Fluorescence polarization, fluorescein-MLL peptide displacement from menin; FP activity change, % at 61.4 µM; 290,000 tested, under 10 active; inconclusive = falling polarisation curve, or a change in total fluorescence; inactive = total fluorescence flat and polarisation flat or rising; no compound was filed as active; the % refers to the polarisation; negative = inhibition;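 also: % of control where 0% means no effect; inhibitors lower the polarisation; unlabelled MLL peptide was the positive control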
ClpP mod – qHTS Assay for Activators of ClpP | ATP-dependent Clp protease proteolytic subunit (Bacillus subtilis (strain 168)), P80244 | purified B. subtilis ClpP, FRET peptide cleavage, 20 min | Potency, µM (doses to about 57.5 µM), without a hit: top-dose activity change, negative = active | 1.9% of 340,000 active | AID 651965, 2013; active = well fitted falling curve with a large enough effect; inconclusive = small, poorly fitted or top-dose-only effect; inactive = no such curve, though single readings can be large or run the other way; also: potency is read from the fitted curve at half-maximal effect; the source files actives as falling curves though it sought activators and does not explain the sign; nearly all actives have a fitted effect of over 65% in size; many hits overshoot -100%
Target sequence (P80244 whole entry, looked up): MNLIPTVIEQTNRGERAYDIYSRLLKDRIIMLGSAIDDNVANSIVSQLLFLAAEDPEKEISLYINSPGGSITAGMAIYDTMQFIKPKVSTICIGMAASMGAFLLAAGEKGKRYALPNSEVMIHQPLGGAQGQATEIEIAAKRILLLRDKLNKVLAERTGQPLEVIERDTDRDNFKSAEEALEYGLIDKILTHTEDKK
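Buffer: 100 mM Tris/HCl pH8, 100 mM KCl, 0.05% low protease BSA, 2.5% glycerol, 0.01% Tween-20. ClpP 10 microg/mL final; 20 min RT; delta FRET normalized to ADEP and DMSO controls.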
TRPML1 ag – agonists of human TRPML1 channel; Q9GZU1; TRPML1-expressing cells, Ca2+ dye fluorescence, FDSS; host cell line not named in the record; reference of the full effect not given here; activation, % (no concentration beside the values); 0.12% of 410,000 active; AID 624414; in the data active = activation above about 50%; inconclusive = about 30% to 50%; inactive = below about 30%; also: 0% is about no effect; the text of the record puts the active cut at 80%
Target sequence (Q9GZU1 whole entry, looked up): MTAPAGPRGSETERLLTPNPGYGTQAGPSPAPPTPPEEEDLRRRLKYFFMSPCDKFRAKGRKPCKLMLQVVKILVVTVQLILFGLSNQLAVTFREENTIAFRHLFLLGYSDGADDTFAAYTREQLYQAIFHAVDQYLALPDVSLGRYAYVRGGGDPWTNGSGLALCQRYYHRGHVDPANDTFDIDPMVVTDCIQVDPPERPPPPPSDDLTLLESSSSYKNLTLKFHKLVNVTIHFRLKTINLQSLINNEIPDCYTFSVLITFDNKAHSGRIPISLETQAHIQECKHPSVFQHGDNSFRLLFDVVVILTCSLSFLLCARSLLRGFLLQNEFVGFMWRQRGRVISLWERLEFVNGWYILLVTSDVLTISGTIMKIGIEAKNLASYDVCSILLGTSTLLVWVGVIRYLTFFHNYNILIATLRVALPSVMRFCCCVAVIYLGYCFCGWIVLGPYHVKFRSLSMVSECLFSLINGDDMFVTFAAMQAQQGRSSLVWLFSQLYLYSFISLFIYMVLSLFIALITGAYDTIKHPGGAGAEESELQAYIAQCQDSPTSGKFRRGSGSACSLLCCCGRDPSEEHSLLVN
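Tetracycline-induced TRPML1-DL cells are seeded and incubated overnight before loading with a no-wash Ca2+ dye and quencher. Agonist activity is taken from the 110 s fluorescence read following compound pin-transfer on an FDSS, before EC80 54-4 challenge.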
Sfp PPTase inh – inhibitors of Bacillus subtilis Sfp phosphopantetheinyl transferase; Q9F4F7; Biochemical Sfp PPTase activity, qHTS; Potency, µM, for the others: max response, negative = inhibition, hits mostly inhibitors; 3.5% of 310,000 active; active = well fitted inhibition curve with a large enough effect; inconclusive = small, poorly fitted or top-dose-only effect, or another doubt; inactive = no such curve, though single readings can be large or run the other way;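 also: the enzyme is Sfp with the accession as filed and its product quenches rhodamine fluorescence; potency is read from the fitted curve at half-maximal effect; 0% = enzyme reaction without inhibitor and -100% = no enzyme wells; top concentration of the series not given in the record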
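Reaction rates are the 30-min fluorescence difference (ex 525, em 598 nm) in wells containing 15 nM Sfp, 5 uM rhodamine-CoA and 12.5 uM BHQ-2-YbbR at pH 7.6 with 10 mM MgCl2.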
TRPV1 potentiator – enhances activation of the human vanilloid receptor TRPV1; Q8NER1; TRPV1-expressing cells, Fluo-8 calcium influx, capsaicin EC20 potentiation; host cell line not named in the record; control for the full effect not named in the record; potentiation, % at 8.33 µM; 0.02% of 320,000 active; AID 540277; active means potentiation above 80%; inconclusive means 30% to 80%; inactive means below 30%; also: 0% is about no effect
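Fluo-8 calcium influx in TRPV1-expressing cells, kinetic read (ex 480/em 520 nm). Compound added and read 3 min for agonist activity, followed by capsaicin at EC20 final and 2 min further read for enhancement.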
PINK1 modulator – changes PINK1 expression. PINK1 immunofluorescence, high-content cytometry, 24 h. Potency, µM (highest dose often 76.6 µM), without a hit: at the highest dose activation (PINK1 increase), most hits filed as activators. 0.2% of 410,000 active. AID 624263; active = well fitted activation curve with a large enough effect; inconclusive = small, poorly fitted or top-dose-only effect; inactive = flat fitted curve, though single readings scatter; cell line not stated here;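 also: potency is read from the fitted curve at half-maximal effect; % of control where 0% means no effect; nearly all actives have a fitted effect of over 65% in size; a mitochondrial uncoupler was the plate control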
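Readout is PINK1 immunofluorescence, quantified alongside mitochondrial, cell and nuclear markers by laser-scanning microplate cytometry. Cells from a stable line were exposed to compound titrations (5 concentrations) for 24 hours, with CCCP controls.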
TRPML1 inh – blocks the human TRPML1 channel | activity change, negative = inhibition, % (test concentration not listed) | AID 624415 | Q9GZU1 | TRPML1-inducible cells, Ca2+ dye fluorescence, FDSS; hits give low values; inhibition of EC80 agonist-evoked calcium signal | 0.02% of 390,000 active; in the data active means activity change below about -50%; inconclusive means about -30% to -50%; inactive means above about -30%;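 also: stimulus is agonist 54-4 at its EC80 concentration; % is scaled to controls: 0 for no effect and ±100 for the full control effect; compound concentration not given in the record; the text of the record puts the active cut at -80%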
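Calcium fluorescence in TRPML1-DL cells induced overnight with Tet: a 110 s read after compound pin addition, then a 110 s antagonist read after challenge with 54-4 at 4 uM final (EC80).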
* hit, by the source's call; ? = inconclusive; . = no result given; & = joins results of further samples; [ ] = another dose, or the depositor's remark. The order is random; about 4.4% have a hit in one of these screens.

SMILES	Menin-MLL FL inh	ClpP mod	TRPML1 ag	Sfp PPTase inh	TRPV1 potentiator	PINK1 modulator	TRPML1 inh
CC1=C(C(=O)N2CCCC(N3CCN(c4ccccc4C)CC3)C2)OCCO1 (stereo not given)	1.1	1.7%	-0.6	20%	-1	0.4%	43
CCOC(=O)c1c(C)n(C)c2ccc(OC(=O)c3ccc(N4C(=O)CCC4=O)cc3)cc12	-0.7	-0.2%	-0.3	8%	11	-1.2%	-5
OC(COc1c(F)cc(Br)cc1F)CN1CCOCC1 (stereo not given)	1.1	-0.6%	1.0	12%	28	-0.7%	?
Cc1ccc(S(=O)(=O)Nc2cc(Cl)c3oc4c(c3c2)C(=O)CC(C)(C)C4)cc1	.	-0.7%	0.7	.	.	0.3%	6
COC(=O)c1cc(C(=O)Nc2cc(C)ccn2)cc([N+](=O)[O-])c1	0.2	-1.5%	-0.2	-12%	-11	-0.5%	14
CC(=O)Nc1sc(C)c(C)c1C(=O)OCC(=O)N(CC(C)C)C1CCS(=O)(=O)C1 (stereo not given)	6.1	-17%	0.8	-9%	-12	0.0%	-4
COc1ccc(-c2ccc(=O)n(CC(=O)Nc3ccc4c(c3)OCCO4)n2)cc1	0.8	.	-0.1	7%	3	-1.0%	-5
CNc1ccc(/C=C2\C=Cc3ccccc32)cc1Cl	.	-2.9%	0.0	.	.	7.3%	.
CCOc1nc2cnccc2n(CC(=O)Nc2cccc(C)c2C)c1=O	.	-0.9%	5.2	13%	-4	-1.4%	10
Cc1cccc(C)c1NC(=O)C(c1ccccc1)N(C)CCc1ccccc1 (stereo not given)	.	-0.8%	-0.7	.	.	?	.
CC(=O)NCCC(=O)Nc1nc2ccc(Oc3ccccc3)cc2s1	0.8	.	-0.1	-14%	-6	-0.2%	-3
Nc1nccc2c1ncn2C1OC(CO)C(O)C1O (stereo not given)	.	0.8%	0.0	.	.	0.0%	5
CCCC(=O)N1CCN(c2ccc([N+](=O)[O-])c(NC(C)c3ccccc3)c2)CC1 (stereo not given)	-0.4	0.1%	-0.1	-11%	-21	.	-8
COc1cccc(-c2cc(C(=O)N3CCc4ccccc4C3)no2)c1	-1.5	-3.3%	2.8	-11%	-10	-3.9%[38.3 µM]	14
O=C(CC(=O)N/N=C\c1cccc(Cl)c1Cl)NCc1ccccc1	1.3	-2.7%	-0.7	-2%	-2	7.4%	5
CC(C)OP(=O)(OC(C)C)C(Nc1ccc(C(=O)O)cc1)c1ccccc1 (stereo not given)	-5.1	4.1%	.	13%	1	-0.7%	.
COc1cc(NC(=O)c2ccc(C(C)(C)C)cc2)c(OC)cc1NC(=O)CN1CCCCC1	-7.5	.	22	-24%	-5	9.7%	-3
CCn1c(C)c(C)c2cc(C(=O)N3CCN(c4cccc(C)c4C)CC3)ccc21	2.6	-16%	1.2&2.7	-24%	0	0.2%&-0.5%	-6&23
CC1CCc2c(sc3nc(CSc4ncn[nH]4)[nH]c(=O)c23)C1 (stereo not given)	1.3	-1.2%	-0.7	14%	-17	2.0%	-6
O=C1NCC(O)=C1C=NCCO	5.0	-1.5%	-1.4	0%	3	1.0%	-11
Cc1ccc(C)c(NC(=O)Nc2nnc(N(CC(C)C)CC(C)C)s2)c1	.	1.9%	-0.4	.	.	1.8%	17
CN1CC[n+]2cnc3ccccc3c21	1.1	28µM*	-0.6	?	7	?	-3
Cc1sc(NC(=O)C2=COCCO2)nc1-c1ccc(Cl)cc1	.	2.6%	0.1	.	-14	11%	-6
COc1ccc(S(=O)(=O)N2CCN(c3cc(-c4ccccc4)nc4ncnn34)CC2)cc1	9.5	?	2.7	18%	5	-7.0%[38.3 µM]	29
COC(=O)Cn1c(CN2CCOCC2)nc2c1c(=O)[nH]c(=O)n2C	-0.5	-3.1%	0.6	-5%	-10	2.6%	33
Cc1c(CNC(=O)c2c([N+](=O)[O-])cnn2C)cnn1C	4.3	.	0.0	5%	23	-1.1%	11
CC(=O)N1N=C(c2c(-c3ccccc3)c3cc(Br)ccc3[nH]c2=O)CC1c1ccco1 (stereo not given)	-0.7	-5.5%	1.5	40µM*	3	4.1%	-8
COc1ccc(CCNC(=O)Cc2ccc([N+](=O)[O-])cc2)cc1OC	-0.2	2.2%	-0.4	3%	-6	2.1%	8
Cc1ccc(-n2ncc3c(N(C)C)ncnc32)cc1Cl	.	-5.3%	-0.9	.	.	3.0%	-20
COc1ccccc1-c1coc2cc(O)ccc2c1=O	1.4	.	.	4%	.	-0.1%	.
CC(=O)c1ccc(OCC(C)C)c(CC(C(N)=O)C(N)=O)c1	0.5	-9.3%	0.2	10%	-7	.	11
Cc1[nH][nH]c(=O)c1N=Nc1ccccc1Cl	-4.7	-1.7%	-0.6	7%	.	1.8%	3
COc1ccc(C(=O)NC(=S)NNC(=O)c2cnccn2)cc1	-3.1	-2.4%	0.8	-15%	-3	20%	19
CC(C)(C)NC(=O)/C(=C/c1ccccc1F)NC(=O)c1ccc([N+](=O)[O-])cc1	-0.8	.	-0.4	10%	-3	0.4%	-2
CC(=O)/C=C(\C)N=Nc1c(O)[nH]c2ccccc12	0.2	.	2.3	12%	-5	0.0%	54
CC(Sc1nnc(-c2cccnc2)n1C)C(=O)N1CCOCC1 (stereo not given)	.	1.2%	-0.3	.	-8	0.4%	-9
COc1ccc(C(=O)Nc2cc(Cl)ccc2Cl)c(OC)n1	-2.2	-12%	-1.1	12%	7	2.2%	2
CC1=NN(C(=O)CSCc2ccccc2)C(O)(c2ccccc2)C1 (stereo not given)	3.7	-1.5%	4.0	-11%	7	-0.6%	41
Cc1ccc(CNC(=O)CCCNC(=O)c2ccc(Cl)cc2)n1C	-0.5	-3.0%	-0.8	-7%	3	28%[38.3 µM]	-4
Cc1cccc(C(=O)NCCNC(=O)c2cnccn2)c1	-0.4	.	2.9	-23%	-2	-0.7%	0
O=C(O)C1=CC[C@@H](c2ccc(Cl)cc2)N(S(=O)(=O)c2ccc(Cl)cc2)C1	.	-3.7%	-0.1	.	?	0.3%	-7
Clc1nc(CN2CCCCC2)nc2sc3c(c12)CCCC3	-0.1	-29%	0.7	1%	-5	12%	7
COC(=O)c1scc2c(=O)cc(C(F)(F)F)[nH]c12	?	.	.	?	-4	-1.1%	.
CCc1ccc(NC(=O)c2cc(-c3ccc(OC)cc3)on2)cc1	0.2	?	0.6	-9%	-4	?	1
O=C(NNC(=O)c1ccccc1Cl)c1ccc(-n2cncn2)c([N+](=O)[O-])c1	.	0.4%	0.1	.	-7	1.5%	-13
Cc1ccc(C)c(N2CCN(Cc3nnnn3C3CCCCC3)CC2)c1	-0.7	-0.9%	?	79µM*	-12	0.3%	6
NS(=O)(=O)c1cccc(NC(=O)CCCNC(=O)c2ccc(Cl)cc2)c1	-1.6	.	1.2	14%	6	0.7%	-13
Cc1cc(C)c(S(=O)(=O)Cc2ccc(Cl)cc2)c(=O)[nH]1	1.0	.	0.7	0%	?	-0.7%	-8
CCOC(=O)c1nc2sc3c(c2c(=O)n1C(C)C(=O)OCC)CCCC3 (stereo not given)	0.7	.	2.4	1%	8	-1.5%	6
CCOC(=O)C1C(=O)CC(C)(O)C(C(=O)OCC)C1c1ccc2c(c1)OCO2 (stereo not given)	.	-1.9%	-0.7	.	.	0.7%	-2

The results go on.
SMILES	Menin-MLL FL inh	ClpP mod	TRPML1 ag	Sfp PPTase inh	TRPV1 potentiator	PINK1 modulator	TRPML1 inh
CC1CCN(S(=O)(=O)c2ccc3c(c2)N(CC(=O)NCCCN2C(C)CCCC2C)C(=O)CO3)CC1 (stereo not given)	.	-0.1%	-0.8	5%	12	-0.3%	-6
C[C@@H]1C=C[C@](Cc2ccccc2)(C(=O)O)N1C(=O)c1ccccc1	-0.7	0.7%	0.1	16%	.	1.3%	4
COc1cc2ccccc2cc1C(=O)N1CCN(c2ccccn2)CC1	9.4	.	-0.3	12%	-6	0.6%	-3
O=C(NCCSCc1ccccc1)c1ccc(Cl)c(S(=O)(=O)N2CCOCC2)c1	0.3	-0.7%	0.3	15%	5	0.5%	-11
NS(=O)(=O)c1ccc(N/N=C2/CCCCC2C2CCCCC2)c([N+](=O)[O-])c1 (stereo not given)	-0.6	-1.4%	1.5	8%	3	-1.9%	43
O=C(COC(=O)c1n[nH]c2ccccc12)Nc1ccc(S(=O)(=O)N2CCCC2)cc1	-0.7	?	0.8	3%	-3	7.6%	-10
COC(=O)c1cccnc1-n1c(=O)c2cccnc2n(Cc2ccc([N+](=O)[O-])cc2)c1=O	0.2	-1.8%	-0.2	18%	-18	0.1%	7
Cc1cccc(C(O)c2ncc(-c3ccc(F)cc3)[nH]2)c1C (stereo not given)	.	0.4%	-0.4	.	.	-0.3%	-12
Cc1cc(C(=O)Nc2ccc([N+](=O)[O-])cn2)cs1	-0.2	1.2%	-0.8	10%	-36	-0.1%	1
COc1ccc(C(=O)OCc2c(-c3cccc(OC)c3)ncc3ccccc23)cc1	.	?	0.1	.	1	-0.3%	16
COc1cc(CNc2ccc3[nH]c(=O)[nH]c3c2)cc(Br)c1OCc1ccccc1F	-5.5	22%&-2.6%	0.5&-0.1	0%	11	3.4%&6.5%	-2&-6
OC(CN1CCCCC1)Cn1c(C(F)(F)F)nc2ccccc21 (stereo not given)	-1.2	-3.9%	1.0	23%	22	0.7%	-23
Cc1cc(C)cc(Cn2cc(CN3CC(N4CCCC4)CS3(=O)=O)nn2)c1 (stereo not given)	.	0.3%	-1.1	.	.	-0.3%	.
CCOc1ccccc1C1C(C(=O)N2CCCCC2)=C(C)Nc2nc3ccccc3n21 (stereo not given)	.	-24%	0.0	.	.	0.3%	-21
COc1ccccc1NC(c1cccnc1)c1ccc2cccnc2c1O (stereo not given)	4.7	-0.9%	0.3	20µM*	-8	-0.1%	-22
COc1ccc(CCNC(=O)C2CCCN(S(=O)(=O)c3ccc(F)cc3)C2)cc1OC (stereo not given)	.	-2.0%	0.0	7%	6	-0.1%	12
CCOc1ccccc1C(=O)NCC(=O)NCC(c1ccco1)N1CCCCC1 (stereo not given)	.	.	1.8	.	4	-0.5%	3
